# PINK1 modulator: A Quantitative High throughput Screen to Identify Chemical Modulators of PINK1 Expression. Potency, µM (top dose mostly 76.6 µM), for the others: at the highest dose activation (PINK1 increase), hits mostly activators. PINK1 immunofluorescence, high-content cytometry, 24 h. hit rate 0.2% among 410,000; active = well fitted activation curve with a large enough effect; inconclusive = small, poorly fitted or top-dose-only effect; inactive = flat fitted curve, though single readings scatter; cell line not stated here;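 note: potency is the fitted concentration of half-maximal effect; % of control where 0% means no effect; nearly all actives have a fitted effect of over 65% in size; a mitochondrial uncoupler was the plate control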
#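 Readout is PINK1 immunofluorescence, quantified alongside mitochondrial, cell and nuclear markers by laser-scanning microplate cytometry. Cells from a stable line were exposed to compound titrations (5 concentrations) for 24 hours, with CCCP controls.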
# Sfp inh: qHTS Assay for Inhibitors of Bacillus subtilis Sfp phosphopantetheinyl transferase (PPTase); 4'-phosphopantetheinyl transferase ffp (Bacillus subtilis), Q9F4F7; Potency, µM, inactives show max response, negative = inhibition, actives largely listed as inhibitors; hit rate 3.5% among 310,000; Biochemical Sfp PPTase activity, qHTS; active = well fitted inhibition curve with a large enough effect; inconclusive = small, poorly fitted or top-dose-only effect, or another doubt; inactive = no such curve, though single readings can be large or run the other way;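 note: the enzyme is Sfp with the accession as filed and its product quenches rhodamine fluorescence; potency is the fitted concentration of half-maximal effect; 0% = enzyme reaction without inhibitor and -100% = no enzyme wells; top concentration of the series not given in the record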
#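 Reaction rates are the 30-min fluorescence difference (ex 525, em 598 nm) in wells containing 15 nM Sfp, 5 uM rhodamine-CoA and 12.5 uM BHQ-2-YbbR at pH 7.6 with 10 mM MgCl2.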
# Menin MLL FP FL: qHTS Assay for Inhibitors Targeting the Menin-MLL Interaction in MLL Related Leukemias: Competition With Fluorescein Labeled MLL-derived Peptide | AID 1766, 2009 | 290,000 tested, under 10 active | Fluorescence polarization, fluorescein-MLL peptide displacement from menin | FP activity change, % at 61.4 µM; inconclusive = falling polarisation curve, or a change in total fluorescence; inactive = total fluorescence flat and polarisation flat or rising; no compound was filed as active; the % refers to the polarisation; negative = inhibition;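 note: % of control where 0% means no effect; inhibitors lower the polarisation; unlabelled MLL peptide was the positive control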
# TRPML1 blocker: qHTS for Inhibitors of the Human Mucolipin Transient Receptor Potential 1 (TRPML1); Mucolipin-1 (Homo sapiens), Q9GZU1; TRPML1-inducible cells, Ca2+ dye fluorescence, FDSS; hits give low values; inhibition of EC80 agonist-evoked calcium signal; activity change, negative = inhibition, % (concentration not given with the values); hit rate 0.02% among 390,000; in the data active means activity change below about -50%; inconclusive means about -30% to -50%; inactive means above about -30%;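 note: stimulus is agonist 54-4 at its EC80 concentration; % is set by controls: 0 for no effect and ±100 for the full control effect; compound concentration not given in the record; the text of the record puts the active cut at -80%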
#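 Calcium fluorescence in TRPML1-DL cells induced overnight with Tet: a 110 s read after compound pin addition, then a 110 s antagonist read after challenge with 54-4 at 4 uM final (EC80).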
# TRPML1 ag: qHTS for Agonists of the Human Mucolipin Transient Receptor Potential 1 (TRPML1) | Mucolipin-1 (Homo sapiens), Q9GZU1 | TRPML1-expressing cells, Ca2+ dye fluorescence, FDSS; host cell line not named in the record; reference of the full effect not given here | activation, % (no concentration beside the values) | hit rate 0.12% among 410,000 | AID 624414, 2012; in the data active = activation above about 50%; inconclusive = about 30% to 50%; inactive = below about 30%; note: 0% is about no effect; the text of the record puts the active cut at 80%
#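 Agonist activity was taken from a 110 s kinetic Ca2+ dye read on the FDSS after pinning compounds onto TRPML1-DL cells. The cells were seeded at 1,500/well with Tet inducer, incubated about 16 h, then dye-loaded at room temperature.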
# ClpP mod: qHTS Assay for Activators of ClpP; purified B. subtilis ClpP, FRET peptide cleavage, 20 min; ATP-dependent Clp protease proteolytic subunit (Bacillus subtilis (strain 168)), P80244; hit rate 1.9% among 340,000; AID 651965, 2013; Potency, µM (top dose mostly 57.5 µM), inactives show at the top dose activity change, negative = active; active = well fitted falling curve with a large enough effect; inconclusive = small, poorly fitted or top-dose-only effect; inactive = no such curve, though single readings can be large or run the other way; note: potency is the fitted concentration of half-maximal effect; the source files actives as falling curves though it sought activators and does not explain the sign; nearly all actives have a fitted effect of over 65% in size; many hits overshoot -100%
# Target sequence (P80244 whole entry, looked up): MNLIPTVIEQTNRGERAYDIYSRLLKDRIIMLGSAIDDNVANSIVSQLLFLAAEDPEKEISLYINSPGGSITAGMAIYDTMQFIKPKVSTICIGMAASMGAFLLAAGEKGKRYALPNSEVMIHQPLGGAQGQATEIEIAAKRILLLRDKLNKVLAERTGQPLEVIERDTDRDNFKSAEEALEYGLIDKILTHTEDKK
#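 ClpP 10 microg/mL final, pH 8 Tris/KCl buffer with BSA, glycerol, Tween-20; compound pinned in; FRET-FV substrate; RT 20 min; Ex320/Em430; ΔFRET vs ADEP 5.8 microM, DMSO, no enzyme.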
# TRPV1 potentiator: HTS Assay for Compounds that Act as Potentiators of the Vanilloid Receptor 1. Transient receptor potential cation channel subfamily V member 1 (Homo sapiens), Q8NER1. TRPV1-expressing cells, Fluo-8 calcium influx, capsaicin EC20 potentiation; host cell line not named in the record; control for the full effect not named in the record. potentiation, % at 8.33 µM. hit rate 0.02% among 320,000. AID 540277, 2011; active means potentiation above 80%; inconclusive means 30% to 80%; inactive means below 30%; note: 0% is about no effect
# Target sequence (Q8NER1 whole entry, looked up): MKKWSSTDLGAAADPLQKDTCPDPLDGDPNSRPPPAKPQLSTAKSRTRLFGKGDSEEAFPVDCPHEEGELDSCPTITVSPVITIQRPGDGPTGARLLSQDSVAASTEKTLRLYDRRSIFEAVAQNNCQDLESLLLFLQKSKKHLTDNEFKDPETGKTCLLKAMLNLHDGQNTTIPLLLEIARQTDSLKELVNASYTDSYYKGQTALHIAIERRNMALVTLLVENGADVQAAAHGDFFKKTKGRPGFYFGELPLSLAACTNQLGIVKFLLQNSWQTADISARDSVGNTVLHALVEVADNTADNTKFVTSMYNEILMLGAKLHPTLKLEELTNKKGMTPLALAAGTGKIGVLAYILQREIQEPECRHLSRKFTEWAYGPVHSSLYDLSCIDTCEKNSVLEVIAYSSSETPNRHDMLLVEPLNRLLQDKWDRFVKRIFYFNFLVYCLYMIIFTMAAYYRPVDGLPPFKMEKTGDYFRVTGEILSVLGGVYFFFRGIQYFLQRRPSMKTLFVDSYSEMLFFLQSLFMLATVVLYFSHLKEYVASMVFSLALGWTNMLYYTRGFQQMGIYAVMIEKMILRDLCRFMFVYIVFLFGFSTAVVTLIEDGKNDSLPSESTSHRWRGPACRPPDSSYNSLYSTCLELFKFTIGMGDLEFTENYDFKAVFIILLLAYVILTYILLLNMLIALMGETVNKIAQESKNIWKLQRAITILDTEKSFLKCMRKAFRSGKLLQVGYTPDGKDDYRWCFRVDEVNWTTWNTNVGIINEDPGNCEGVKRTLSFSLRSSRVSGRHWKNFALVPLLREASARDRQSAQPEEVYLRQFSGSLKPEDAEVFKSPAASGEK
#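 Cells expressing TRPV1 were dye-loaded with Fluo-8 and read kinetically: 10 s baseline, 3 min after compound (agonist portion), then 2 min after EC20 capsaicin (allosteric enhancer portion). Calcium-bound dye fluorescence at 480/520 nm.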
# * hit, by the source's call; u = inconclusive; x = no result given; [ ] = another dose, or the depositor's remark.
[1] CCCCN(CCCNC(=O)c1ccc2c(c1)NC(=O)CN2C)c1ccccc1
[2] C[C@H](CO)N1C[C@H](C)[C@@H](CN(C)CC2CC2)Oc2c(NC(=O)C3CC3)cccc2C1=O
[3] CCN(CC)C(=O)CSC1=Nc2ccccc2C2=NC(Cc3c[nH]c4ccccc34)C(=O)N12 (configuration not stated)
[4] O=C(Nc1cc(Cl)ccc1N1CCOCC1)c1cccnc1
[5] O=C(CN(C1CCCCC1)S(=O)(=O)c1ccc(Cl)cc1)NCc1ccncc1
[6] CC(C)(C)c1ccc(S(=O)(=O)NC(=O)C2(C)CCN2C(=O)Cc2cc(F)ccc2F)cc1 (configuration not stated)
[7] Cn1c(=S)c2[nH]c(SCCN)nc2n(C)c1=O
[8] Cc1oc(-c2cccc(Cl)c2)nc1CN1CCCC(C(=O)NCc2ccc(Cl)cc2)C1 (configuration not stated)
Screen / compound no.	1	2	3	4	5	6	7	8
PINK1 modulator	-2.0%	-1.3%	-2.6%	1.4%	x	7.2%	1.4%	3.4%
Sfp inh	x	x	50µM*	8%	5%	x	x	x
Menin MLL FP FL	x	x	6.5	x	3.6	x	x	x
TRPML1 blocker	-7	25	0	-8	3	x	-4	58
TRPML1 ag	-0.9	2.4	-0.8	-0.6	0.4	-0.7	0.6	0.8
ClpP mod	1.0%	-3.9%	2.0%	x	-0.7%	1.9%	0.8%	-3.3%
TRPV1 potentiator	x	x	11	6	-33	x	x	x

[9] CCc1nnc(NC(=O)C2CCCN2S(=O)(=O)c2ccc(F)cc2)s1 (configuration not stated)
[10] COC(=O)C1=C(C)N=C2SC(C)C(=O)N2C1c1cccc(F)c1 (configuration not stated)
[11] O=C1CCCc2oc3c(c21)CCCC3
[12] O=C(c1ccc2c(c1)N(Cc1ccc(Cl)cc1)C(=O)c1ccccc1S2(=O)=O)N1CCC(Cc2ccccc2)CC1
[13] O=[N+]([O-])c1ccc(N2CCCC2)nc1N1CCCC1
[14] COc1ccc(-c2csc(N(CCCN(C)C)C(=O)c3ccc(C)cc3)n2)cc1
[15] CCN1CCN(c2cc(C)c3cc(NC(=O)c4cccc(Cl)c4)ccc3n2)CC1
[16] CN(C)CCN(C(=O)/C=C/c1cccs1)c1nc2c(F)cc(F)cc2s1
Screen / compound no.	9	10	11	12	13	14	15	16
PINK1 modulator	1.7%	-1.0%	1.7%	0.4%	1.9%	0.1%	4.9%	-2.4%
Sfp inh	7%	4%	18%	x	-18%	3%	x	-17%
Menin MLL FP FL	0.9	0.9	1.5	x	-3.2	-0.2	x	11
TRPML1 blocker	7	-9	-2	-6	-7	-1	17	-2
TRPML1 ag	-1.3	0.8	-0.5	-0.6	3.4	0.0	-0.2	-0.3
ClpP mod	-1.0%	0.0%	x	-2.6%	x	x	-3.3%	0.7%
TRPV1 potentiator	u	-4	-19	x	-12	-40	x	9

[17] CC1=NN(C(=O)c2csc(C)c2)C(O)(C(F)(F)F)C1 (configuration not stated)
[18] Cc1ccccc1C(=O)O/N=C(\N)c1ccncc1
[19] OCC1(CO)CCCC(CO)(CO)C1O
[20] CC(CC(=O)Nc1cc(C(F)(F)F)ccc1Cl)c1ccccc1 (configuration not stated)
[21] CCN(CC)CCCNc1oc(/C=C/c2ccccc2)nc1C#N
[22] CC(=O)Oc1ccc(-c2csc(Nc3cccc(C)n3)n2)cc1
[23] Cc1cc(C(=O)COc2ccc(Br)cc2F)c(C)n1CC1CCCO1 (configuration not stated)
[24] Oc1c(C(c2cccs2)N2CCN(c3cccc(Cl)c3)CC2)sc2ncnn12 (configuration not stated)
Screen / compound no.	17	18	19	20	21	22	23	24
PINK1 modulator	-0.4%	-0.9%	-2.4%	2.6%	0.0%	-1.6%	-1.1%	4.6%
Sfp inh	15%	3%	x	1%	u	4%	x	1%
Menin MLL FP FL	5.6	-1.6	x	-2.7	1.7	-3.1	x	-1.2
TRPML1 blocker	5	-9	-9	2	4	18	1	15
TRPML1 ag	-0.5	2.3	0.1	0.8	0.7	1.7	-0.4	0.2
ClpP mod	-25%	x	x	-0.8%	4.1%	-0.2%	0.8%	0.7%
TRPV1 potentiator	-1	11	x	-25	u	30	x	5

[25] CC(=O)N1CC2(C)CN(C(C)=O)CC(C)(C1)C2O (configuration not stated)
[26] Cc1ccc(S(=O)(=O)N2CCC(C(=O)Nc3ccccc3N3CCCC3)CC2)cc1C
[27] Clc1nc(Cl)nc(NCCC2=CCCCC2)n1
[28] Cc1cc([N+](=O)[O-])nn1CC(=O)N/N=C/c1ccc(O)cc1O
[29] CCOC(=O)c1ccc(CC(=O)c2oc3cc(O)ccc3c2C)o1
[30] CCOc1ccc(NC(=O)Cn2nnc(C(=O)NCCc3ccc(OC)c(OC)c3)c2N)cc1
[31] O=C(Nn1c(-c2ccccc2)nc2ccccc2c1=O)c1ccco1
[32] C[N+](C)(C)CCN1C(=O)CSC1=O
Screen / compound no.	25	26	27	28	29	30	31	32
PINK1 modulator	3.1%	3.0%	-0.6%	-0.6%	6.5%[38.3 µM]	-0.2%	2.7%[38.3 µM]	4.2%
Sfp inh	11%	x	-1%	29%	u	19%	-7%	1%
Menin MLL FP FL	-1.0	x	1.2	0.2	u	0.3	0.4	1.3
TRPML1 blocker	11	-9	-16	x	2	2	2	-23
TRPML1 ag	0.0	0.2	-0.2	x	2.6	0.7	2.2	0.9
ClpP mod	1.7%	2.3%	x	0.7%	32µM*	1.1%	-0.4%	x
TRPV1 potentiator	3	-6	9	28	u	-1	4	13

[33] CCOc1cc2[nH]c(=O)n(CCCCC(=O)N3CCN(c4ccccc4OC)CC3)c(=O)c2cc1OCC
[34] O=C1NCCN(Cc2cccc(Oc3ccccc3)c2)C1CC(=O)N1CCCCC1 (configuration not stated)
[35] CCCNC(=O)CSc1nc(COc2ccccc2)nc2ccccc12
[36] COc1ccc2cc(CCNS(=O)(=O)c3ccc(C)cc3)c(=O)[nH]c2c1
[37] Cc1nnc(NC(=O)C2CCN(S(=O)(=O)c3cc([N+](=O)[O-])ccc3Cl)CC2)o1
[38] Cc1noc(/C=C/c2cccnc2)c1[N+](=O)[O-]
[39] COc1cc(C(=O)OCC(=O)NC(=O)NCc2ccccc2)ccc1OC(F)F
[40] CCNc1nc(NC(C)(C)C)nc(N2CCCCC2)n1
Screen / compound no.	33	34	35	36	37	38	39	40
PINK1 modulator	0.9%	5.7%	-0.6%	-0.2%	-0.5%	-4.0%	2.5%	16%
Sfp inh	x	-5%	8%	x	x	3%	x	8%
Menin MLL FP FL	x	x	-0.7	x	x	-0.1	x	-1.7
TRPML1 blocker	14	-8	38	3	-8	-11	-10	-3
TRPML1 ag	-1.0	1.1	2.7	-0.9	-0.9	3.4	4.0	-0.6
ClpP mod	-9.8%	-5.4%	x	4.1%	-0.7%	-0.6%	-3.9%	x
TRPV1 potentiator	x	-4	3	x	-18	13	u	-9

[41] CN1CCOC1c1ccc(C2OCCN2C)cc1 (configuration not stated)
[42] COc1ccc(/C=N/NC(=O)c2cc(Br)ccc2O)cc1Cn1cc(Cl)cn1
[43] CCOc1ccccc1N(C)C(=O)c1cc(S(=O)(=O)NCCc2ccc(Cl)cc2)ccc1F
[44] CCOC(=O)[C@H]1[C@H]2COc3ccccc3[C@@H]2N2C(=O)c3cc(F)c(F)cc3NC(=O)[C@@]12C
[45] Cc1ccc(NC(=O)CSc2ncc3c(n2)-c2ccc(Cl)cc2N(C)S3(=O)=O)cc1F
[46] COc1cccc(C(=O)Nc2cccc(C(C)=O)c2)c1
[47] Cc1ccc(NC(=O)CSc2nccn2C)cc1S(=O)(=O)N1CCOCC1
[48] CCOc1cc(Br)c(C(=O)O)cc1OCC
Screen / compound no.	41	42	43	44	45	46	47	48
PINK1 modulator	-1.0%	2.7%	u	4.2%	0.9%	-0.2%	-0.7%	5.0%[38.3 µM]
Sfp inh	x	-9%	x	x	x	5%	10%	12%
Menin MLL FP FL	x	0.5	x	x	x	1.9	2.1	-0.1
TRPML1 blocker	3	2	13	-5	6	-13	-9	18
TRPML1 ag	-0.4	2.0	2.5	0.0	-0.1	-0.2	0.1	0.5
ClpP mod	0.7%	-6.8%	-0.9%	0.0%	-20%	0.2%	-1.4%	-0.7%
TRPV1 potentiator	x	12	x	20	x	-23	-2	-2

[49] COc1cc(OC)cc(C(=O)Nc2ccc(-c3nc4ccccc4s3)cc2C)c1
[50] COc1cccc(C(=O)Nc2cccc3ccccc23)c1OC
[51] CC(C)Cn1c(=O)c2c(nc3n2CCS3)n(C)c1=O
[52] Cc1cc(N2CCN(C)CC2)nc2ccc(NC(=O)Nc3ccc(F)cc3)cc12
Screen / compound no.	49	50	51	52
PINK1 modulator	0.3%	-0.9%	0.7%	1.8%
Sfp inh	x	-4%	6%	x
Menin MLL FP FL	x	1.0	6.2	x
TRPML1 blocker	-17	-1	-2	6
TRPML1 ag	1.4	1.7	0.1	1.3
ClpP mod	-20%	x	x	-16%
TRPV1 potentiator	x	3	6	x

# Screening results as filed in PubChem BioAssay.
